# Bioassay records (PubChem BioAssay)
# UUG fidelity: alters start codon recognition fidelity in yeast; S. cerevisiae UUG-firefly luciferase reporter, luminescence/redox ratio; activity score, % at 18.7 µM; 0.13% of 350,000 active; AID 602363;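 active = replicate mean at a twofold rise or more, about +100% in these data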;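 note: firefly luciferase made from a UUG start codon reports start codon fidelity; reporter light over untreated wells divided by growth signal over untreated wells; some hits fall short of that in this replicate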
# eIF4H inh: inhibitors of RNA binding by human eIF4H; Q15056; eIF4H fluorescence polarization binding assay; inhibition, % at 35 µM; 0.94% of 290,000 active; AID 2012;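 active = 50% or more with normal probe brightness, or confirmed in later tests; inconclusive = above 50% with abnormal brightness, or retests that disagree; inactive = below 50% or failed in later tests; about a fifth of its hits are not listed in these tables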;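 note: calls also rest on retests at 20 µM and on dose response follow-up; 0% = protein and probe with vehicle and 100% = probe without protein; strong numbers were not always called active; many hits fall short of the cut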
# Env fusion inh: blocks HIV Env-driven cell-cell fusion | HeLa-JRFL Env/CEM21 cell fusion, luciferase | inhibition, % at 12.3 µM | 1.1% of 360,000 active | AID 651610;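 active = mean replicate inhibition score of at least 50 and every replicate individually at or above 50; inconclusive = only one of the two criteria met; inactive = mean below 50 and not all replicates reaching 50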;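 note: 0% = plate neutral controls and 100% = maraviroc near 300 nM; one replicate is shown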
# PABP polyA inh: blocks human PABP binding to poly(A) RNA; P11940; fluorescence polarization; inhibition, % at 35 µM; 1% of 290,000 active;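 active = 50% or more with normal probe brightness, or confirmed in later tests; inconclusive = above 50% with abnormal brightness, or retests that disagree; inactive = below 50% or failed in later tests; about a fifth of its hits are not listed in these tables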;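 note: calls also rest on retests at 20 µM and on dose response follow-up; controls were probe without protein and protein plus probe with vehicle; some compounds called inactive have numbers as strong as hits; many hits fall short of the cut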
# Target sequence (P11940 whole entry, looked up): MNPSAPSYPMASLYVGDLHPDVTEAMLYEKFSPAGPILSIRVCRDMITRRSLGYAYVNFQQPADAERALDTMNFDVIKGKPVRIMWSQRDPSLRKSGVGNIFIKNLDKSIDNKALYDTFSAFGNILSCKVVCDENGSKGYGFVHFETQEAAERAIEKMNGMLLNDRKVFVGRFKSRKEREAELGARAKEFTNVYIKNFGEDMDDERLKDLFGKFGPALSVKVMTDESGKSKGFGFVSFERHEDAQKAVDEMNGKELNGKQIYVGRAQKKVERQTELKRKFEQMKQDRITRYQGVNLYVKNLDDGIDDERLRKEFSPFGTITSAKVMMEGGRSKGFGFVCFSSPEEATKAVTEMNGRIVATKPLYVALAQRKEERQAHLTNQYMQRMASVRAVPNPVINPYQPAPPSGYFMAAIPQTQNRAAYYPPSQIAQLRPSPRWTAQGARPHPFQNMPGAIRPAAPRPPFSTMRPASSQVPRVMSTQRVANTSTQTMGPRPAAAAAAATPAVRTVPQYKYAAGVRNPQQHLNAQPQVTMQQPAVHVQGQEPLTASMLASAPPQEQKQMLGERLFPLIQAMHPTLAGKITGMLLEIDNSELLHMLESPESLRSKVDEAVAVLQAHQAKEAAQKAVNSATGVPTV
# CSC inhib: blocks cancer stem cells. cancer stem cell-like cells viability, luminescence. inhibition, % at 7.5 µM. 1.1% of 300,000 active. AID 2717;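 active = mean at 75% or more and at least half the replicates too; inconclusive = mean and replicates disagree; tested in HMLE shEcad cells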;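 note: 0% = median of negative and 100% = median of positive control wells; the first replicate is given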
# MT1-MMP act inh: inhibitors of human MT1-MMP activation; P50281; HT1080 RFP-PRO-GFP cells, GFP/RFP ratio fluorescence, overnight; percent of plate control window, DMSO zero; GFP/RFP ratio change, % at 20 µM; 0.061% of 360,000 active; AID 651647;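 active = GFP/RFP ratio change of at least 30% with cell ATP level not reduced by more than half and red fluorescence within 50% of control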; note: strong numbers were not always called active
#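 Assay system: HT1080 RFP-PRO-GFP cells | Dosing: 20 µM single dose, 1% DMSO | Incubation: Cells overnight before dosing, compound overnight, 37 °C, 5% CO2 | Evaluation: GFP/RFP fluorescence ratio | Control set: DMSO-only wells and HT1080 RFP-L50D-GFP cell wells as references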
# Rce1 inhib: yeast Ras-converting enzyme inhibition; yeast membranes, quenched prenylated peptide cleavage fluorescence; calls only; 0.27% of 290,000 active; AID 2563;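 active = fall in fluorescence gain of 50% or more versus controls, with final raw signal at or below 3038400; inconclusive = same 50% fall but final raw signal above 3038400; inactive = fall in fluorescence gain under 50%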;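 note: plate controls were neutral control wells for no effect and wells lacking membranes for full effect; tested at 10 µM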
# Target sequence (Q03530 whole entry, looked up): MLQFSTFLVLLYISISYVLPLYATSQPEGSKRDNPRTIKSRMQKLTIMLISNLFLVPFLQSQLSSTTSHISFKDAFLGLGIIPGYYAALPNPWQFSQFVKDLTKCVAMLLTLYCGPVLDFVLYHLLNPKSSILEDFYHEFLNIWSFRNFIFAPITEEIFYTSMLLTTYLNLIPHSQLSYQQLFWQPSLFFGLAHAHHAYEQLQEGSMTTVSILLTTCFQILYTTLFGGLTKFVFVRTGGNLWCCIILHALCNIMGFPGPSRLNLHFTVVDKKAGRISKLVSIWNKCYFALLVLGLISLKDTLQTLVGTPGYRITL
# eIF4H inh retest: further read-out of eIF4H inh, marked with its call; inhibition, %; compound at 20 µM; confirmation average;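 mean of two retest wells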
# PABP polyA inh retest: recorded beside PABP polyA inh, whose call it bears; inhibition, %; compound at 20 µM; confirmation repeats;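 mean of two retest wells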
# MT1-MMP act inh RFP: further read-out of MT1-MMP act inh, marked with its call; RFP signal change, %; measured here: RFP expression control read;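 0 = vehicle wells; hits needed this value within 50% of zero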
# An asterisk follows results filed as active; i = inactive; ? = inconclusive; . = not tested or not shown; + = active, no number.
SMILES,UUG fidelity,eIF4H inh,Env fusion inh,PABP polyA inh,CSC inhib,MT1-MMP act inh,MT1-MMP act inh RFP,Rce1 inhib,others
O=C(CSc1nccc(=O)[nH]1)NCc1ccc(Cl)cc1,.,-12,11,-4,-6,.,.,i,
O=C1CN(C(=O)CNC(=O)c2ccccc2Cl)c2ccccc2N1,-9,3,-6,6,-4,-1,5,i,
CC(C)(C)NC(=O)CN(C(=O)CCC(=O)Nc1nccs1)c1ccc(F)cc1,-3,2,2,2,-18,0,-1,i,
COc1ccc(CN(C(=O)c2cccs2)c2ccccc2C(=O)O)cc1,-4,-9,9,-5,-4,-4,7,i,
COc1cc(C2C=C(c3cccs3)Nc3ncnn32)cc(OC)c1OC (stereo not given),.,?,.,22,.,-168,-5,.,
COc1ccc(C[C@@H]2CN3C(=NC[C@@H]3C)N2C[C@H](C)NC(=O)CCC2CCCCC2)cc1,-13,-11,-30,0,4,-2,-1,i,
Cn1c(=O)c(/C(N)=N/OC(=O)c2ccccc2)cn(-c2ccccc2)c1=O,.,-4,-15,3,-4,4,3,i,
CCOC(=O)C(C)Oc1ccc(=O)n(-c2ccccc2)n1 (stereo not given),-2,-2,-3,-3,-7,-4,1,i,
CN(C)c1ccc(N=Nc2ccc(S(N)(=O)=O)cc2)cc1,1,24,-64,-15,-4,17,2,i,
CCOC(=O)C1=C(CNCc2ccccc2Cl)NC(=O)NC1c1cccc([N+](=O)[O-])c1 (stereo not given),-2,2,10,8,-19,-8,-4,i,
COC(=O)c1nn(-c2ccc(OC)cc2)c(=O)cc1Oc1ccccc1,-16,-14,1,3,-7,-6,0,i,
O=C(c1ccoc1)N1CCCC(Nc2ccc(F)c(F)c2)C1 (stereo not given),-3,-9,10,-13,-8,-1,3,i,
Cc1cccc(CS(=O)(=O)c2ncc(Cl)c(C(=O)NCc3ccccc3)n2)c1,-11,1,44,-6,13,-2,0,i,
O=S(=O)(Nc1nnc(C2CCCCC2)s1)c1ccc(F)cc1,-2,6,-9,2,.,-1,0,i,
COc1ccc(NC(=O)Cn2c(CCC(=O)O)ccc2-c2ccccc2)cc1,-14,-9,3,4,-10,1,2,i,
O=c1c2ccccc2nnn1COc1ccc(Cl)cc1Br,.,-12,-11,?,-5,2,7,i,
O=C(NCCCn1ccnc1)c1ccc(-c2cccc(Cl)c2Cl)o1,-14,.,.,.,-7,-1,-9,.,
CC(C)=CCN1CCN(Cc2ccoc2)CC1CCO (stereo not given),-4,2,9,-1,9,-1,1,i,
Cc1ccc(N2C(=O)N3[C@H](c4ccc(Br)cc4)[C@@H]4C(=O)N(C(C)(C)C)C(=O)[C@@H]4[C@]3(C)C2=O)cc1,30,-18,23,5,-2,-1,-1,i,
Cc1ccc(NC(=O)CSc2nc3ccccc3c(=O)[nH]2)cc1[N+](=O)[O-],-5,.,-13,.,-17,7,-11,.,
COc1ccc(C(=O)NC2=NCCS2)cc1S(=O)(=O)N1CCCCC1C (stereo not given),.,-9,15,0,1,0,4,i,
COC(=O)c1ccc(-n2c(C)cc(C(=O)CCl)c2C)cc1,-25,6,-97,-20,52,1,3,i,
CCC(C)(C)NC(=O)C(c1ccc(OC)cc1)N(C(=O)CCC(=O)Nc1cc(C)on1)C(C)(C)C (stereo not given),-4,-7,5,5,-4,-1,-3,i,
CC(C(=O)N1CCCC1)N1CCN(c2ccccc2O)CC1 (stereo not given),-10,2,14,-8,9,-1,1,i,
CN1C[C@@H]2[C@@H]3C(=O)N(Cc4ccccc4)C(=O)[C@@H]3[C@](C)(C1=O)N2C(=O)c1ccccc1,-2,.,4,.,.,1,3,.,
CCOc1ccc(NC(=O)CN(C)CC(=O)Nc2ccc(F)c(F)c2F)cc1OCC,-5,-4,6,5,-11,1,-1,i,
CC(C)C(=O)N1CCN(c2ccccc2NC(=S)NC(=O)Cc2ccccc2)CC1,-19,-14,-12,-7,-9,-26,-20,i,
COc1ccc(CN(CCC(c2ccccc2)c2ccco2)C(=O)c2ccco2)cc1 (stereo not given),.,-9,10,-4,13,-8,-8,i,
Cc1ccnn1CCC(=O)N1CCCC(CCC(=O)N2CCN(c3ccccn3)CC2)C1 (stereo not given),.,-7,1,-8,-8,2,-2,i,
Cc1cccc(C(=O)NC(=S)Nc2ccc(S(=O)(=O)N(C)c3ccccc3)cc2)c1,-9,-4,.,7,22,3,-8,i,
Cc1cc(C(=O)Nc2nnc(C3CCCCC3)s2)no1,-13,-15,-76,-3,-4,2,3,i,
CC(C)Cn1c(CCNC(=O)c2ccco2)nc2ccccc21,.,.,3,.,8,0,-2,i,
Cc1ccc(C)c(OCc2ccc(C(=O)N3N=C(C(F)F)CC3(O)C(F)F)o2)c1 (stereo not given),.,-5,26,2,-1,3,1,i,
CCOC(=O)N1CCN(C(=O)CCn2c(=S)[nH]c3ccsc3c2=O)CC1,.,-2,0,15,-2,7,2,i,
Cc1ccc(OC[C@H](O)[C@H](C)NC(C)C)c2c1CCC2,-23,.,-319,.,-6,6,6,.,
CCc1nnc(SCc2ccc(OC(C)C)cc2)n1N,-6,2,.,-7,1,2,6,i,
COc1ccc(OC)c(NC(=O)COC(=O)CNC(=O)c2ccc(OC)c(OC)c2)c1,1,-2,25,1,5,1,4,i,
COc1cccc(CSc2nc3cc4c(cc3cc2C)OCCO4)c1,-12,-4,-2,12,60,-9,-5,i,
COc1ccccc1C(=O)Nc1ccnn1C1CCN(C(=O)C2CCOC2)CC1 (stereo not given),-3,-14,-10,-4,12,0,7,i,
Cc1ccc(N=Nc2c(N)[nH]n3c(=O)c4c(nc23)CCCC4)cc1,.,16,.,17,.,.,.,i,
CCC(C)NC(=O)C1c2cc(OC)c(OC)cc2C(=O)N(C)C1c1cccs1 (stereo not given),8,-1,-208,-4,-5,4,-1,i,
Cc1ccc(C(=O)c2ccc([N+](=O)[O-])cc2)cc1,-10,5,.,1,3,0,5,i,
CCOC(=O)c1cc(NC(=O)CSc2nnc(CN3CCOCC3)n2C)ccc1Cl,1,.,-2,.,-7,5,6,i,
CCC(=O)c1c(NC(CC)CO)cc(C)oc1=O (stereo not given),.,-8,10,5,-1,-4,5,i,
CN(C)CCCNc1nc(N)c([N+](=O)[O-])c(NCc2ccccc2)n1,-14,9,1,-6,-16,-3,5,i,
O=C(CSCc1ccc(Cl)cc1)N/N=C/c1ccc(OCC(=O)Nc2ccccc2)cc1,-10,4,.,4,10,-5,-13,i,
Cn1c2c(c(=O)n(C)c1=O)C(C(F)(F)F)(C(F)(F)F)N=C(C1CCCCC1)N2,-5,-2,32,0,-3,-10,-10,i,
O=C(NCc1c(F)cccc1F)c1cc(COc2c(F)cccc2F)on1,.,-10,23,-2,7,-3,-3,i,
CCc1nc(SCC(=O)N2CCN(C(=O)c3ccco3)CC2)c2c3c(sc2n1)CCCC3,0,-6,23,1,-4,2,-6,i,
CCN(CCNC(=O)C1CCC(=O)N1Cc1ccc(C)cc1)c1ccccc1 (stereo not given),.,0,1,-9,-26,-1,4,i,
# Continuation.
SMILES,UUG fidelity,eIF4H inh,Env fusion inh,PABP polyA inh,CSC inhib,MT1-MMP act inh,MT1-MMP act inh RFP,Rce1 inhib,others
COc1ccccc1NC(=S)NCCSc1ccc(C)cc1,-30,3,-6,7,-10,0,1,i,
Cc1c(C(=O)N2CCOCC2)sc(NC(=O)c2ccc([N+](=O)[O-])cc2)c1C#N,-2,-8,4,15,-1,3,-10,i,
Cc1ccc2c(c1)N(Cc1ccccc1)C(=O)C(C)O2 (stereo not given),-16,.,3,.,.,-1,7,.,
COC(=O)C1(Cc2cc(-c3cccc(Br)c3)no2)CCN(C(=O)OC(C)(C)C)CC1,-5,-4,.,-6,38,0,-4,i,
O=C(O)CC1Sc2nnc(COc3ccc(Cl)cc3)n2N=C1c1ccccc1 (stereo not given),-12,-10,-21,9,0,-3,3,i,
CC(C)(C)c1cc(OC(=O)C2CCCC2)ccc1O,-4,0,6,4,9,4,-1,i,
CN(c1ccccc1)S(=O)(=O)c1ccc(NC(=O)C2CCCCC2C(=O)O)cc1 (stereo not given),2,-10,.,6,-13,2,4,i,
CC1=C(C(=O)OCCOc2ccccc2)C(c2coc3ccccc3c2=O)C2=C(CCCC2=O)N1 (stereo not given),.,-10,57*,6,-9,-4,-3,.,
CCCN(CC(=O)Nc1ccccc1C)C(=O)/C=C/c1ccc(S(=O)(=O)N2CCCCCC2)cc1,.,.,15,.,3,-6,-4,i,
COc1ccc(OC)c(Nc2ncnc3c2cnn3-c2cccc(C)c2)c1,11,-4,1,5,17,-5,-11,i,
CC(=O)N(Cc1cccs1)C1CCOC(C)(C)C1 (stereo not given),-11,-12,.,-10,7,1,7,+,
COc1ccccc1N1CCN(C(=O)Cn2nc(C(F)(F)F)c3c2CCC3)CC1,3,-2,.,56,.,-6,-3,i,eIF4H inh retest=-4;PABP polyA inh retest=13
COc1ccc(-c2nc3c4ccccc4[nH]c(=O)n3n2)cc1,-13,4,-128,2,-12,6,5,i,
COc1cccc(C(=O)/C=C/Nc2ccc(S(=O)(=O)Nc3cc(OC)nc(OC)n3)cc2)c1,.,-4,5,13,3,1,4,.,
COc1ccc(N2CCN(C(CNC(=O)C(=O)NC3CCCC3)c3ccco3)CC2)cc1 (stereo not given),-12,.,-1,.,25,-3,-11,i,
CN1C(=O)/C(=C/c2cccc([N+](=O)[O-])c2)C(=O)N1c1ccccc1,-27,-6,-12,1,3,4,3,i,
CCOc1ccc(S(=O)(=O)/N=C(/Nc2ccc(C(C)=O)cc2)c2ccccc2)cc1,-19,.,17,.,3,2,-7,.,
CC(Nc1ccccc1)c1cccnc1 (stereo not given),.,-7,4,-2,-1,1,1,i,
COc1ccc(-c2cc(C(=O)NCCCN3CCCC3=O)c3ccccc3n2)cc1OC,-7,.,i,.,.,6,2,.,
Cc1noc(C)c1COc1ccc(C(=O)N2CCCC(C(N)=O)C2)cc1 (stereo not given),15,-6,3,12,5,4,1,i,
CC1Cc2cc(-c3csc(NC(=O)CCl)n3)ccc2N1C(=O)C1CC1 (stereo not given),-21,.,-37,.,.,-3,-2,.,
CN(C)C(=O)NC(Nc1ccc(Cl)cc1Cl)C(Cl)(Cl)Cl (stereo not given),-10,-13,.,-4,5,-11,-9,.,
Clc1ccccc1CN(Cc1ccccc1)c1ncnc2nc[nH]c12,-13,8,.,10,51,-2,-1,i,
Nc1nc(SCc2ccc(Cl)cc2)ns1,-6,-2,.,-9,.,0,2,i,
CN(C(=O)COC(=O)c1c2c(nc3ccccc13)CCCC2)c1c(N)n(Cc2ccccc2)c(=O)[nH]c1=O,.,.,6,.,-7,-4,-2,i,
COC(=O)c1ccc(COC(=O)C2CCN(S(=O)(=O)c3ccccc3C(=O)OC)CC2)cc1,-19,.,.,.,3,-5,-1,.,
CC(C)[C@H](NC(=O)NC1CCCc2ccccc21)C(=O)O (stereo not given in full),-15,-2,.,1,.,-6,0,i,
Cc1nnsc1S(=O)c1ccc(Cl)cc1 (stereo not given),.,-4,-1,-6,.,-1,-1,i,
CCc1cccc2c(C(=S)N3CCCC3)c[nH]c12,-2,0,5,3,5,1,3,i,
Cc1ccc(C(=O)Nc2cc(C)c(OCC(=O)N3CCOCC3)c(C)c2)cc1,-18,-3,.,-4,9,0,-1,i,
